Screening data (PubChem)
AF4-AF9 inh – inhibitors of human MLL-AF4/AF9 interaction. AID 651704. inhibition, % at 10 µM. P42568. hit rate 0.47% among 350,000. AlphaScreen, biotin-AF4 peptide binding to FLAG-AF9;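 active = every replicate reaching a set inhibition limit, whatever the replicate mean, cut at about 25% in these data; inconclusive = mean inhibition reaches that limit but some replicates miss it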;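 also: 0% = plate neutral control median and 100% = total signal loss; the record names both 10 and 1 µM as test concentration; the first replicate is given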
Target sequence (P42568 whole entry, looked up): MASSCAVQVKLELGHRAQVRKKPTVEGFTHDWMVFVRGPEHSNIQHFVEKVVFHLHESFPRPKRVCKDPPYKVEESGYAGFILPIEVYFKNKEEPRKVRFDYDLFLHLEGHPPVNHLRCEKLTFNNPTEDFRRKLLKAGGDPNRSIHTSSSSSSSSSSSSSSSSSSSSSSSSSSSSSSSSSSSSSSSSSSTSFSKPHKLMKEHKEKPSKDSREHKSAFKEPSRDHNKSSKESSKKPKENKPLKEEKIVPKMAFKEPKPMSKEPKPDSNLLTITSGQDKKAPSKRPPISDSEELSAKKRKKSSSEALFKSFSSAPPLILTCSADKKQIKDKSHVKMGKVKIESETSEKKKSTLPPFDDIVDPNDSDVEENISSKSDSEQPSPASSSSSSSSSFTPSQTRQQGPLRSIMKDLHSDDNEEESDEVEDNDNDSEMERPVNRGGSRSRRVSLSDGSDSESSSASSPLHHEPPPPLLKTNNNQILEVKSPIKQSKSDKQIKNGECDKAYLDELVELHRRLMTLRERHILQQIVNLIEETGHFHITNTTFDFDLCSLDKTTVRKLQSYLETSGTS
Ecoli rRNA inh – selective bacterial rRNA inhibition in E. coli; E. coli WT GFP vs humanized-ribosome RFP mutants, fluorescence, 24 h; stronger effect = lower value; DMSO median 0, no signal -100; GFP signal change (wild-type ribosome), % (test concentration not listed); hit rate 1.6% among 350,000; AID 720706;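 active = significant combined selectivity score with lowered wild-type GFP, culture density cut under 30%, mutant RFP and density less affected; inactive = any of these conditions unmet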; also: one replicate is shown; some compounds called inactive have numbers as strong as hits
FGF22 binding – binders of recombinant human FGF22 by thermal shift | Q9HCT0 | SYPRO orange fluorescence; percent of sucrose octasulfate shift, DMSO zero | calls only at 9.99 µM | hit rate 1.5% among 340,000 | AID 651658;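 active = melting point raised past a set limit in the mean and every replicate; inconclusive = no clear call; three in four hits are not shown here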
Target sequence (Q9HCT0 whole entry, looked up): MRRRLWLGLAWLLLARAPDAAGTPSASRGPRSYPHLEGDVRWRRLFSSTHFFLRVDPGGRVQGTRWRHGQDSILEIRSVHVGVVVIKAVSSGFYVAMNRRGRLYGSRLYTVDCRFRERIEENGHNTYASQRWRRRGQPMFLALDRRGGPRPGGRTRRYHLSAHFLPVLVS
Ecoli growth – inhibitors of Escherichia coli growth | hit rate 0.21% among 330,000 | AID 1053175 | OD600 absorbance (test concentration not listed) | OD600, 23 h; stronger effect = lower value;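 active = OD600 absorbance below the run mean of sample wells minus 3.6 SD, in any replicate, cut at about 0.56 in these data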;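 also: stock transfer was 300 nL into about 60 µL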
ALR H2O2 inh – blocks human ALR sulfhydryl oxidase activity. P55789. purified ALR, DTT oxidation, H2O2 HRP-luminol luminescence. inhibition, % (concentration not given with the values). hit rate 3.8% among 290,000;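 active = mean and each replicate at 75% or more; inconclusive = only one of the two met; inactive = neither met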;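 also: stock transfer was 7.5 nL into about 7.5 µL; 0% = neutral wells and 100% = wells with inactivated enzyme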
Target sequence (P55789 whole entry, looked up): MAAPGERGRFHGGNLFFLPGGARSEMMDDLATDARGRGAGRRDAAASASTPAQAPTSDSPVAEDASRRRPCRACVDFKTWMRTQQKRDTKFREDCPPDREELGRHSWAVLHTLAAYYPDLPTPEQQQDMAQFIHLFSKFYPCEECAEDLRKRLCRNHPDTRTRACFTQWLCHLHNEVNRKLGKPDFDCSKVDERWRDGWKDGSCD
Vif TR-FRET – inhibitors of Vif binding to APOBEC3G peptide, primary screen, biochemical, TR-FRET, GST-Vif 1-94, biotin-A3G peptide, dose response retest (AID 1117319); TR-FRET GST-Vif / biotin-A3G peptide binding; higher % means a stronger effect; test concentration not given here; strong numbers were not always called active; inhibition, %; hits with a dose series show IC50 in µM; hit rate 0.57% among 260,000;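 active = above the screen mean plus three standard deviations and confirmed in dose response; inconclusive = results disagree or hit not tested in dose response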;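 also: Vif residues 1-94 fused to GST binding biotinylated APOBEC3G peptide 110-148; 0% = full assay without inhibitor and 100% = GST in place of GST-Vif; retest series ran down from 100 µM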
HNF4A DNA FP – change in binding of human HNF4 alpha to DNA; HNF4a-FITC DNA binding, fluorescence polarization, 1 h; AID 1224865; hit rate 0.3% among 360,000; P41235; activity change, % at 10 µM; in the data active = activity change above about 30%, passing the limit was not always enough;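 also: controls were the assay level and a saturating level of protein; the project sought stronger binding though the title names inhibitors; some compounds called inactive have numbers as strong as hits; positive values seem to mean higher polarization but the record does not say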
Ecoli rRNA inh OD600 – second read-out of Ecoli rRNA inh, no call of its own (marks repeat the call); OD600 change, %; measured here: OD600 growth;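 optical density of the mix in the first replicate; 0 = DMSO median and -100 = no signal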
Ecoli rRNA inh RFP – second read-out of Ecoli rRNA inh, no call of its own (marks repeat the call); RFP signal change, %; measured here: RFP humanized mutant strains;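 first replicate; 0 = DMSO median and -100 = no signal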
Numbers without * were called inactive; i = inactive; ? = inconclusive; . = no result given; & = joins results of further samples.

SMILES	AF4-AF9 inh	Ecoli rRNA inh	Ecoli rRNA inh OD600	Ecoli rRNA inh RFP	FGF22 binding	Ecoli growth	ALR H2O2 inh	Vif TR-FRET	HNF4A DNA FP
COc1cccc(S(=O)(=O)N2C[C@@H](O)COC[C@H]3O[C@H](CC(=O)N4CCN(C)CC4)CC[C@@H]32)c1	-0.5	3	7	-3.7	i	.	.	.	.
COc1ccc(-c2[nH]c(-c3cc(OC)c4c(c3)OCO4)nc2-c2ccccc2)cc1	8.2	-4	-8	-1.7	i	0.73	41	.	2.0
COCC(=O)N1C[C@@H]2[C@H](c3ccccc31)[C@@H](CO)N2C(=O)Nc1ccccc1Cl	-0.4	-2	2	-2.1	i	.	.	.	.
O=C(NC1CCCC1)C(c1ccccn1)N(Cc1ccccc1F)C(=O)c1csnn1 (stereo not drawn)	3.1	3	9	1.6	i	0.7	-7	2%	3.6
CCOC(=O)C(Cc1ccc(NC(=O)/C(=C/c2ccccc2)NC(=O)c2ccccc2)cc1)N1C(=O)c2ccccc2C1=O (stereo not drawn)	.	.	.	.	.	0.76	-8	-1%	3.1
COc1ccc(NC(=O)N(C)C[C@H]2OCCCC[C@H](C)Oc3ccc(NC(=O)CCCN(C)C)cc3C(=O)N([C@@H](C)CO)C[C@H]2C)cc1	0.3	-1	-11	-1.4	i	.	.	.	.
CC1CCCN(C(=O)CCc2nnc(-c3ccc4c(c3)OCO4)o2)C1 (stereo not drawn)	1.1	-3	-3	-1.1	i	0.73	-1	.	2.2
Cc1cc(Br)cc(Cl)c1OCC(=O)NC(=O)NCc1ccccc1	-1.5	3	11	-0.8	i	0.7	-6	-7%	-1.1
COc1ccc(OC)c(/C=C/C(=O)c2ccc3c(c2)OCO3)c1	6.8	0	-9	-8.0	i	0.69	4	1%	-1.6
NC(=O)C1CCN(c2oc(-c3cccs3)nc2S(=O)(=O)c2ccc(Br)cc2)CC1	-1.1	2	-4	-0.5	i	0.68	42	-6%	4.9
CCOC(=O)c1c(NC(=O)c2c(Br)cnn2C)c(C#N)nn1-c1ccccc1	1.9	-29*	-16*	-4.1*	i	0.66	-3	-1%	0.2
O=C(Cc1ccncc1)NCC[C@@H]1CC[C@H](NC(=O)C2CCCC2)[C@@H](CO)O1	0.4	3	3	-1.5	i	.	.	.	.
CCOC(=O)c1cnc2c(OC)cccc2c1N1CCN(c2ccccc2OC)CC1	.	.	.	.	.	.	10	25%	-1.9
C[C@H]1CN([C@@H](C)CO)C(=O)c2cccc(NS(=O)(=O)c3ccccc3)c2O[C@H]1CN(C)S(=O)(=O)c1cccs1	1.5	-5	-7	0.4	i	.	.	.	.
CCOc1ccc(C(=O)COC(=O)c2cc(=O)[nH]c3ccccc23)cc1	-1.6	8	17	-1.3	i	0.73	-2	-8%	-2.5
C[C@@H]1CN([C@@H](C)CO)S(=O)(=O)c2ccc(Br)cc2O[C@@H]1CN(C)C(=O)c1ccc(F)cc1	-3.9&-0.8	-7&3	2&-10	-1.6&1.7	i	.	.	1%	1.5
CC1CC(=O)NN1C(=O)c1ccccc1 (stereo not drawn)	-2.9	12	14	-1.6	i	0.68	0	1%	4.1
CCCN(CCC)CCCNC(=S)Nc1ccc2nc3n(c(=O)c2c1)CCCCC3	.	.	.	.	.	0.62	-50	2%	-0.5
COc1cc(O)oc1C=Nc1ccc(C(F)(F)F)cc1	.	.	.	.	.	0.7	.	?	2.8
O=C(CC1CC1)N1[C@@H]2CN(S(=O)(=O)c3ccc(F)cc3)c3ccccc3[C@@H]2[C@@H]1CO	0.5	0	-4	0.1	i	.	.	.	.
Cc1cc(S(=O)(=O)N2CCN=C2c2ccccc2)c(C)cc1Cl	3.3	-21	-20	5.2	i	0.74	4	-1%	-3.5
Cc1ccccc1CN1CCN(CC2CC2)CC1CCO (stereo not drawn)	3.0	10	8	2.6	i	0.66	2	-1%	-0.2
COc1ccc(Nc2ncnc3ccc(Br)cc23)cc1OC	.	.	.	.	.	0.7	-3	.	-1.9
C[C@@H]1CCCCO[C@H](CN(C)C(=O)NC2CCCCC2)[C@H](C)CN([C@@H](C)CO)C(=O)c2cc(N(C)C)ccc2O1	3.2	0	2	0.4	i	.	.	.	.
COc1cc2nc(C3CCC3)n(N)c(=O)c2cc1OC	-3.0	-3	6	7.0	i	0.68	-3	.	1.3

Gathered by group: the entries above containing a Cl atom (three)
SMILES	AF4-AF9 inh	Ecoli rRNA inh	Ecoli rRNA inh OD600	Ecoli rRNA inh RFP	FGF22 binding	Ecoli growth	ALR H2O2 inh	Vif TR-FRET	HNF4A DNA FP
COCC(=O)N1C[C@@H]2[C@H](c3ccccc31)[C@@H](CO)N2C(=O)Nc1ccccc1Cl	-0.4	-2	2	-2.1	i	.	.	.	.
Cc1cc(Br)cc(Cl)c1OCC(=O)NC(=O)NCc1ccccc1	-1.5	3	11	-0.8	i	0.7	-6	-7%	-1.1
Cc1cc(S(=O)(=O)N2CCN=C2c2ccccc2)c(C)cc1Cl	3.3	-21	-20	5.2	i	0.74	4	-1%	-3.5

Later entries
SMILES	AF4-AF9 inh	Ecoli rRNA inh	Ecoli rRNA inh OD600	Ecoli rRNA inh RFP	FGF22 binding	Ecoli growth	ALR H2O2 inh	Vif TR-FRET	HNF4A DNA FP
CC(=O)N1CC2(C1)[C@H](c1ccccc1)[C@@H](CO)N2C(=O)Cc1ccccc1	-3.7	3	12	-1.9	i	.	.	.	.
O=C(Cc1cccnc1)N1CC(=O)N2[C@H](C1)[C@H](c1ccc(C3=CCCCC3)cc1)[C@@H]2CO	16	1	-3	-0.3	i	.	.	.	.
C[C@@H]1CN([C@H](C)CO)C(=O)c2cc(/C=C/c3ccccc3)cnc2O[C@H]1CN(C)C(=O)C1CCCCC1	12	-13	-25	8.3	i	.	.	.	.
Cc1ccc(S(=O)(=O)N[C@H]2CC[C@H](CCNC(=O)c3ccccc3F)O[C@H]2CO)cc1	0.9	-3	2	-3.1	i	.	.	.	.
O=C(C1CCCN(c2nnc(-n3cccc3)s2)C1)N1CCN(c2ccccc2)CC1 (stereo not drawn)	-1.7	-4	-5	5.7	i	0.73	21	3%	2.4
COCC(=O)N1C[C@@H](C)[C@@H](OC)CN(C)C(=O)c2cc(NC(=O)c3ccccc3)ccc2OC[C@@H]1C	-1.3	-2	2	-2.0	i	.	.	.	.
CC(C)c1ccc(NC(=O)CC2Oc3ccccc3NC2=O)cc1 (stereo not drawn)	-1.4	0	0	-1.5	i	0.69	3	-2%	-4.2
C[C@@H]1CN([C@@H](C)CO)C(=O)c2cccc(NC(=O)c3cnccn3)c2O[C@@H]1CN(C)Cc1ccccc1	-3.7	3	4	-1.9	i	.	.	.	.
COc1ccc(-c2ccc3n(c2=O)C[C@H]2[C@H](CO)[C@@H](C(=O)N4CCCCC4)[C@@H]3N2C)cc1	-2.0	0	-3	-1.9	i	.	.	.	.
O=[N+]([O-])c1cc([N+](=O)[O-])c(Oc2c(F)cccc2F)cc1NN1CCCCC1	-1.6	20	21	-3.4	i	0.7	.	.	1.9
CCc1ccc(C(=O)CC2(O)C(=O)N(CN3CCOCC3)c3ccccc32)cc1 (stereo not drawn)	.	.	.	.	.	0.77	-5	-2%	-3.2
CC(C)n1nnnc1SCC(=O)Nc1ccc2c(c1)OCO2	.	.	.	.	.	0.7	.	2%	6.4
O=C(NCc1ccccn1)Nc1ccccc1Cl	0.1	13	-5	1.2	i	0.69	-14	.	0.9
C[C@H](CO)N1C[C@H](C)[C@@H](CN(C)Cc2ccncc2)Oc2ccc(NS(=O)(=O)c3cn(C)cn3)cc2C1=O	-0.5	2	5	-0.7	i	.	.	.	.
Cc1cc(S(=O)(=O)NCCc2ccncc2)cc(C)c1F	1.6	5	5	0.4	i	0.64	-4	.	4.8
CCOC(=O)C1(C)NC(c2ccc(OC)cc2OC)C2C(=O)N(CC)C(=O)C21 (stereo not drawn)	-0.5	-4	2	0.7	i	0.72	-2	11%	-3.7
COc1ccc(NC(=O)c2oc3ccccc3c2CSC)cc1S(=O)(=O)N1CCOCC1	-1.3	2	10	-2.3	i	0.67	-1	-5%	1.9
CCOP(=O)(OCC)c1cccc(P(=O)(c2ccccc2)c2ccccc2)c1O	1.8	-22	-23	-8.9	i	0.69	-8	.	2.1
C[C@H](CO)N1C[C@H](C)[C@H](CN(C)C(=O)Nc2ccccc2)Oc2ncc(C#CC3CCCCC3)cc2C1=O	6.7	3	2	2.6	i	.	.	.	.
CCOC(=O)CNC(=O)CSc1nc2c(C)cccc2cc1CC	-0.1	8	-3	1.1	i	0.66	-3	-4%	2.5
COc1ccccc1CNC(=O)C[C@@H]1C[C@@H]2c3cc(NC(=O)c4ccc5c(c4)OCO5)ccc3O[C@@H]2[C@@H](CO)O1	8.1	-3	-2	2.7	i	.	.	.	.
CC(C)c1ccc2nc(NC(=O)C3CC3)sc2c1	-6.5	-39	-76	-10	i	0.73	1	.	7.3
C[C@H](CO)N1C[C@H](C)[C@@H](CN(C)C(=O)C2CCOCC2)Oc2cc(C3=CCCC3)ccc2S1(=O)=O	-1.7	0	-6	0.7	i	.	.	.	.
CO[C@@H]1CN(C)C(=O)c2cc(NC(=O)c3cccc(F)c3)ccc2OC[C@@H](C)N(CC2CC2)C[C@@H]1C	-8.5	-1	-3	-0.9	i	.	.	.	.
Cc1ccc(CC(NC(=O)c2ccc(C)cc2)C(=O)O)cc1 (stereo not drawn)	-1.5	-1	11	-8.7	i	0.7	.	2%	-1.0

Other records.
SMILES	AF4-AF9 inh	Ecoli rRNA inh	Ecoli rRNA inh OD600	Ecoli rRNA inh RFP	FGF22 binding	Ecoli growth	ALR H2O2 inh	Vif TR-FRET	HNF4A DNA FP
COc1ccc(N2C[C@H](Cc3ccccc3)[C@@H](CC(=O)Nc3ccccc3)C2=O)cc1	-0.6	-13	-16	-0.3	i	.	.	4%	2.3
C[C@@H]1CN([C@H](C)CO)C(=O)Cc2cc(NS(=O)(=O)c3ccc(F)cc3)ccc2O[C@@H]1CN(C)Cc1ccc(C(F)(F)F)cc1	2.4	-1	-3	5.2	i	.	.	.	.
Cc1cccc(CNC(=O)C2CCC(=O)N(C3CC3)C2)c1 (stereo not drawn)	-2.5	14	14	2.5	i	0.73	1	.	4.8
COc1cccc(C(=O)NN2C(=O)C3C4C=CC(O4)C3C2=O)c1 (stereo not drawn)	.	.	.	.	.	0.68	0	9%	1.6
Cc1sc2ncnc(N3CCN(Cc4ccccc4)CC3)c2c1-c1ccc(F)cc1	12	-14	-37	-5.3	i	0.65	-5	.	1.3
O=C(c1ccc(Cl)c(S(=O)(=O)N2CCCC2)c1)N1CCN(c2ccc(F)cc2)CC1	3.9	-23	-21	6.2	i	0.71	.	3%	-1.8
CN(Cc1nc(-c2cnccn2)no1)CC(O)c1ccccc1 (stereo not drawn)	0.3	51	17	1.5	.	0.72	.	-6%	-0.7
Nc1cccc(Oc2ccc3c(c2)C(=O)N(CCO)C3=O)c1	-3.8	0	3	-1.8	i	.	.	.	-1.2
O=C(NC1CC1)c1ccc(CSCc2cccc(F)c2)o1	3.3	6	3	5.1	i	0.76	99*	5%	-0.6
COc1ccc(S(=O)(=O)Nc2ccccc2C(=O)Nc2nc(-c3ccc(F)cc3)cs2)cc1OC	.	.	.	.	.	0.65	.	-3%	1.5
C/C(=N\NC(=O)c1ccc(C)cc1)c1c(C)[nH]n(-c2ccccc2)c1=O	2.5	-43	-70	-16	i	.	42	.	2.2
C[C@H]1CN([C@@H](C)CO)C(=O)c2c(c3ccccc3n2C)-c2ccccc2CO[C@H]1CN(C)C(=O)Nc1ccc2c(c1)OCO2	0.2	0	0	-0.6	i	.	.	.	.

The list is partial; count on the stated rates, not on these rows.
